PINK1 expr mod = A Quantitative High throughput Screen to Identify Chemical Modulators of PINK1 Expression. PINK1 immunofluorescence, high-content cytometry, 24 h. Potency, µM (highest dose often 76.6 µM), for the others: top-dose activation (PINK1 increase), actives largely listed as activators. actives 0.2% (n = 410,000). AID 624263, 2012; active = well fitted activation curve with a large enough effect; inconclusive = small, poorly fitted or top-dose-only effect; inactive = flat fitted curve, though single readings scatter; cell line not stated here;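 also: % of control where 0% means no effect; nearly all actives have a fitted effect of over 65% in size; a mitochondrial uncoupler was the plate control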
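Stable cell line treated 24 h with compounds at 5 concentrations (CCCP controls), then fixed and immunostained for PINK1 plus nuclear and cell stains; PINK1 immunofluorescence quantified by laser-scanning microplate cytometry.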
The depositor's hits bear a star; ? = inconclusive. Potency is read from the fitted curve at half-maximal effect.

canonical_smiles	PINK1 expr mod
C=CCn1c(SCC#N)nc2cc(Cl)ccc2c1=O	0.0%
COc1ccc(CN(Cc2ccccc2)C(=O)CN2CCN(C)CC2)cc1COc1ccc(NC(C)=O)cc1	-0.3%
CCOC(=O)c1ccccc1NC(=O)CSc1ccc(-c2sc(C)nc2C)nn1	-0.8%
CCOc1ccc(CCNC(=O)c2cc3sc(CC)cc3n2C)cc1OCC	4.0%
COC(=O)c1c(C)oc2c1cc(NS(=O)(=O)c1c(C)cc(C)cc1C)c1ccccc12	-1.2%
Cc1cccc(NC(=O)/C(C#N)=C/c2ccc(C)o2)c1	4.1%
CC(=O)c1ccc(NC(=O)CSC2=Nc3ccccc3N=C(c3ccc(F)cc3)C2)cc1	2.7%
CC1CC(=O)N(CC(=O)Nc2ccc(F)cc2F)c2ccccc2S1 (stereo unspecified)	0.9%
COc1ccc(OC(=O)c2nc(SCc3ccccc3C)ncc2Cl)cc1	-0.7%
CCCN(C(=O)c1cn(CC(C)C)c(=O)c2cc(OC)c(OC)cc12)c1cccc(C)c1	-0.3%
CN(C)C(=O)[C@@H]1C[C@@H](Sc2nc3ccccc3[nH]2)CN1Cc1ccnc2ccccc12	-0.8%
O=C(Cn1c(=O)n(Cc2ccc3c(c2)OCO3)c(=O)c2oc3ccccc3c21)Nc1ccc(F)cc1	1.2%
CCOC(=O)CSc1nc2sc3c(c2c(=O)n1CC)CCCC3	1.0%
Cc1c(C2=CCN(S(=O)(=O)c3ccc(Cl)cc3)CC2)c2ccccc2n1CC(=O)N1CCCC1	0.9%
COc1ccccc1CNC(=O)CN(C)c1nn2c(=O)cc(C)nc2s1	0.3%
Cc1ccc(N2CC(NC(=O)c3ccc(S(=O)(=O)N4CCCC4)cc3)CC2=O)cc1C (stereo unspecified)	0.3%
Cc1ccc(NC(=O)C(C)n2nnc3sc4c(c3c2=O)CCCC4)cc1Cl (stereo unspecified)	1.1%
CCOC(=O)c1cccc(NC(=O)CCSCCc2ccccn2)c1	-0.6%
CCc1ccc2nc(N(Cc3cccnc3)C(=O)Cc3ccccc3)sc2c1	3.2%
COc1cc(Cl)c(C)cc1NC(=O)c1cn(C2CCCC2)c(=O)c2c1c1ccccc1n2C	0.2%
COc1cc(CN(C(=O)c2cccc(Cl)c2)c2ccccn2)cc(OC)c1OC	-0.5%
Fc1ccc(NCc2cccn2-c2nnc(N3CCOCC3)s2)cc1	1.2%
O=C(CCn1ccc2cc(S(=O)(=O)N3CCCC3)ccc21)NCc1ccccc1Br	-1.0%
CCOC(=O)c1c(S(=O)(=O)N2CCCC(C(=O)NCc3cccc(OC)c3)C2)c(C)n(C)c1C (stereo unspecified)	-1.1%
COc1ccc(Cn2c(=O)c3oc4ccccc4c3n(Cc3ccc(Cl)cc3)c2=O)cc1	0.9%
CN(C(=O)CSc1nnc(-c2ccc([N+](=O)[O-])cc2)o1)C1CCCCC1	1.2%
COc1ccc(OC)c(/C=C2\C=Cc3ccccc32)c1	3.4%
CCOCCc1nnc(NC(=O)C(=O)c2cc(C)n(-c3ccc(C)c(C)c3)c2C)s1	2.3%
CCOc1ccc(CCNC(=O)c2nnc(Cc3ccc(Cl)cc3Cl)o2)cc1OCC	2.0%
Cc1ccc(NC(=O)Cn2c(=O)n(-c3ccccc3)c(=O)c3ccc(C(=O)NCc4ccc5c(c4)OCO5)cc32)c(C)c1	3.8%
CCOc1ccc(C(=O)Nc2ccc3nc(SCC(=O)N(C)c4ccccc4)sc3c2)cc1	-0.6%
CCOC(=O)c1cnc2nc(NCc3ccc(OCC)cc3)[nH]n2c1=O	0.2%
CCn1cc(C(=O)NCc2ccccc2)c(=O)c2cc(S(=O)(=O)N3CCc4ccccc4C3)ccc21	0.2%
CCOC(=O)Cn1c(=O)n(C2CCCCC2)c2nc(-c3cccc(C)c3)nc(C(N)=O)c21	-2.0%
O=C(Cc1ccc(-c2ccccc2)cc1)NCCS(=O)(=O)N1CCN(c2cccc(Cl)c2)CC1	11.3%
CCOc1ccc(CNC(=O)c2ccc3nc(CC)c(CC)nc3c2)cc1	0.3%
Cc1ccc(C)c(NC(=O)c2cc(S(=O)(=O)NCCC3=CCCCC3)ccc2F)c1	6.1%
CCCOc1ccc(CNC(=O)Cn2cc3c(n2)-c2c(oc(C(=O)N4CCOCC4)c2C)CC3)cc1	-1.1%
COc1ccc(C2CC(=O)c3cnc4c(-c5ccc(F)cc5)c(C)nn4c3C2)cc1OC (stereo unspecified)	1.9%
COc1ccc(Br)cc1CNC(=O)CN1C(=O)CCCc2ccccc21	2.3%
Cc1ccc(C)c(CN2C(=O)c3ccccc3S(=O)(=O)c3ccc(C(=O)Nc4cc(F)ccc4F)cc32)c1	?
CCC(CC)c1nn2c(=O)cc(COc3ccc(NC(=O)c4ccccc4C)cc3)nc2s1	-0.2%
Cc1ncc2c(c1CNC(=O)c1cncs1)CCN(C(=O)c1ccc(C(F)(F)F)cc1)C2	0.1%
Cc1cccc(N2CCN(C3=C(c4ccccc4)C(=O)c4ccccc43)CC2)c1C	0.5%
CC1CCCN(CCCNC(=O)c2ccc3c(c2)N(Cc2ccc(Cl)cc2)C(=O)c2ccccc2S3(=O)=O)C1 (stereo unspecified)	2.3%

Shown with the structure last: 7 of the compounds above
| PINK1 expr mod | SMILES |
| --- | --- |
| 0.3% | CCOc1ccc(CNC(=O)c2ccc3nc(CC)c(CC)nc3c2)cc1 |
| 6.1% | Cc1ccc(C)c(NC(=O)c2cc(S(=O)(=O)NCCC3=CCCCC3)ccc2F)c1 |
| -1.1% | CCCOc1ccc(CNC(=O)Cn2cc3c(n2)-c2c(oc(C(=O)N4CCOCC4)c2C)CC3)cc1 |
| 1.9% | COc1ccc(C2CC(=O)c3cnc4c(-c5ccc(F)cc5)c(C)nn4c3C2)cc1OC (stereo unspecified) |
| 2.3% | COc1ccc(Br)cc1CNC(=O)CN1C(=O)CCCc2ccccc21 |
| ? | Cc1ccc(C)c(CN2C(=O)c3ccccc3S(=O)(=O)c3ccc(C(=O)Nc4cc(F)ccc4F)cc32)c1 |
| -0.2% | CCC(CC)c1nn2c(=O)cc(COc3ccc(NC(=O)c4ccccc4C)cc3)nc2s1 |

(listing goes on)
canonical_smiles	PINK1 expr mod
CCn1nc(C)c2c(-c3ccccc3)cc(=O)n(C(C)C(=O)Nc3cccc(F)c3)c21 (stereo unspecified)	0.9%
Cc1ccc(C)c(NC(=O)CSc2c(C)cnc3c2c(=O)n(C)c(=O)n3C)c1	-0.4%
Cc1cc(C)cc(NC(=O)C2CCN(C(=O)c3cnn(-c4ccccc4)c3-n3cccc3)CC2)c1	0.7%
COC(=O)c1ccc(Cl)cc1NC(=O)N(Cc1ccc(C)o1)C1CCN(C(C)=O)CC1	-1.7%
CC1=C(C(=O)Nc2ccc(Cl)cc2)C(c2ccccc2C)n2ncc(C(=O)Nc3ccc(C)cc3)c2N1 (stereo unspecified)	-1.8%
Cc1ccccc1OCC(=O)Nc1ccc2nc(SCc3ccccc3)sc2c1	-1.9%
O=C(Nc1ccc2oc(-c3cccnc3)nc2c1)c1ccc(-c2cccc(Cl)c2)o1	-0.5%
CCN(CC)CCCNc1sc(S(=O)(=O)c2ccccc2)nc1S(=O)(=O)c1ccc(Cl)cc1	-1.2%
COc1ccc(OC)c(CNC(=O)C2CCN(S(=O)(=O)c3ccc4[nH]c(=O)oc4c3)CC2)c1	-0.5%
Clc1cccc(CNc2cc(-c3ccccc3)nc3nncn23)c1	8.0%
CCN(CC)c1ccc(NC(=O)CN2C(=O)c3cccnc3Oc3ccc(Cl)cc32)c(C)c1	0.3%
CN(C)CCNC(=O)CN1C(=O)COc2ccc(S(=O)(=O)N3CCCC3)cc21	6.4%
Cc1cc(C)c(NC(=O)C(=O)NCCc2csc(-c3ccc(F)cc3)n2)c(C)c1	6.4%
COc1cccc(C(=O)Nc2ccccc2OCc2cc(=O)n3ccccc3n2)c1	-3.6%
COc1ccc(CCNC(=O)Cn2c(=O)nc(-c3ccccc3)c3ccccc32)cc1OC	-0.6%
CNC(=O)c1ccc2nc(CCc3ccccc3)oc2c1	0.6%
Cc1ccc(CCNC(=O)c2ccc3c(c2)N(Cc2cccc(Cl)c2)C(=O)c2ccccc2S3(=O)=O)cc1	0.0%
COc1ccc(-n2nc(C(=O)Nc3cccc(C)n3)c3c4ccccc4n(C)c3c2=O)cc1	1.5%
CCOc1ccc(CNC(=O)C2Cc3ccccc3N2C(=O)CC)cc1 (stereo unspecified)	0.5%
O=C1c2oc3ccccc3c(=O)c2C(c2ccc(Br)cc2)N1c1ccccn1 (stereo unspecified)	0.9%
Cc1ccc(Cl)cc1-n1c(SCC(=O)NCc2ccccc2)nc2n[nH]c(C)c2c1=N	7.2%
O=C(NCc1cccn1Cc1ccccc1)Nc1ccc(Br)cc1F	12.1%
CCc1ccc(C2CC(=O)c3c([nH]c(C(=O)OC4CCCC4)c3C)C2)cc1 (stereo unspecified)	-1.0%
Cc1ccc(NC(=O)CCCn2c(=O)c3cccn3c3cccnc32)c(C)c1	0.8%
CCOc1ccc(Nc2nc3c(S(=O)(=O)c4ccc(CC)cc4)nnn3c3ccc(Cl)cc23)cc1	-1.3%
CC(C)(C)C(=O)Cn1c(=O)n(CCCCCC(=O)NCc2ccc3c(c2)OCO3)c(=O)c2sccc21	0.3%
Cc1ccc(S(=O)(=O)c2cn(Cc3ccccc3)c3cc(N4CCCCC4)c(F)cc3c2=O)cc1	-0.5%
O=C(CS(=O)(=O)c1cccc2nsnc12)Nc1ccccc1	-1.9%
O=C(NCCc1ccc(Cl)cc1)c1nc(-c2cccc(F)c2)n2c1CCCCC2	0.3%
COc1cc(C(=O)Nc2nc3c(s2)Cc2c(Br)ccc(OC)c2-3)cc(OC)c1OC	6.3%
CC(C)c1nn2c(=O)cc(COC(=O)CNC(=O)c3ccccc3Cl)nc2s1	0.2%
COc1ccccc1CNC(=O)Cn1nc(C)n2cccc2c1=O	1.3%
Oc1cc(-c2nc3ccccc3s2)cc2c1OCCN(Cc1cn[nH]c1-c1ccc(Cl)cc1)C2	0.5%
COc1cccc(NC(=O)C2CCN(S(=O)(=O)c3c(C)noc3/C=C/c3cccs3)CC2)c1	0.1%
CCOc1ccc(CN(C(=O)c2nc(SC)ncc2Cl)C2CCS(=O)(=O)C2)cc1 (stereo unspecified)	0.9%
COc1ccccc1Oc1nc2c(c(=O)n(C)c(=O)n2C)n1Cc1cccc(Br)c1	1.6%
Cc1cc(C)cc(OCc2ccc(C(=O)Nc3ccccc3F)o2)c1	5.7%
COc1cc(Nc2nc3c(S(=O)(=O)c4ccccc4)nnn3c3ccc(Cl)cc23)cc(OC)c1	-2.4%
Cc1ccc(Cl)cc1N1CCN(C(=O)c2ccc3c(c2)N(Cc2ccc(F)cc2)CCS3)CC1	0.3%
CCCN1CNc2c(c(=O)[nH]c(=S)n2CCc2ccc(OCC)c(OCC)c2)C1	0.0%
O=S(=O)(NCC1CCC(NS(=O)(=O)c2c(F)cccc2F)CC1)c1ccc2c(c1)OCCO2 (stereo unspecified)	1.8%
CCNC(=O)c1ccc2c(c1)nc1n2CCCCC1	-0.7%
CCCOc1cccc(C2c3c(oc4ccccc4c3=O)C(=O)N2c2nncs2)c1 (stereo unspecified)	0.3%
CC(=O)N1CCCc2cc(S(=O)(=O)N3CCC(C(=O)NCc4ccc(C)cc4)CC3)ccc21	1.9%
CC(=O)N1CCCC1c1nc2ccccc2n1Cc1cc(C)ccc1C (stereo unspecified)	-1.0%
Cc1[nH]c2ccccc2c1C(=O)COC(=O)c1ccccc1SCC(=O)N1CCCC1	2.0%
COc1cccc(N2CC(NC(=O)CCCc3ccccc3)CC2=O)c1 (stereo unspecified)	1.0%
Cc1cccc(-c2noc(CN(C(=O)COc3ccc(Br)cc3C)C(C)C)n2)c1	0.8%
Cc1c(/C=C(\C#N)C(=O)Nc2cccc(Cl)c2)c2ccccc2n1Cc1ccccc1Cl	2.9%
COc1cccc(NC(=O)CCN2CCN(c3ccccc3)CC2)c1	-0.5%
Brc1ccc2nc(SCCOc3ccccc3)[nH]c2c1	?
Cc1c(C(=O)NCc2ccc(Cl)cc2)sc2nc3n(c(=O)c12)CCC3	0.0%
Cc1ccccc1C(=O)Nc1nnc(S(=O)(=O)N2c3ccccc3CC2C)s1 (stereo unspecified)	0.9%
COCCCNC(=O)c1cc(-c2cccnc2)nc2ccc(S(=O)(=O)N3CCC(C)CC3)cc12	-0.9%
Cc1ccc(NC(=O)CN2C(=O)CC(C)Sc3ccccc32)c(C)c1 (stereo unspecified)	-0.1%
CCc1ccc(S(=O)(=O)c2nnn3c2nc(Nc2ccc(C)c(Cl)c2)c2sccc23)cc1	1.6%
CC[n+]1cccc(Br)c1	0.4%
CC(=O)c1ccc(Nc2nc3ccccc3nc2-n2nc(C)cc2C)cc1	1.4%
O=[N+]([O-])c1ccc(-c2cc3ccccc3[nH]2)cc1	1.4%
CCC(C)NC(=O)c1ccc2nc(-c3cccs3)c(-c3cccs3)nc2c1 (stereo unspecified)	0.8%
Cc1cccn2c(=O)c3cc(C(=O)N(Cc4ccccc4)C(C)C)sc3nc12	0.8%
CCN(CC)c1ccc(NC(=O)Cn2c(C)c3cnn(-c4ccccc4)c(=O)c3c2C)c(C)c1	0.1%

Screening results as filed in PubChem.

An excerpt, so the mix of outcomes need not match the whole.
